Bioassay records deposited in PubChem BioAssay by National Center for Advancing Translational Sciences (NCATS).
gsp antagonist – gsp mutant antagonism; gsp-mutant cells, cAMP HTRF, 30 min; control for the full effect not named in the record; actives 0.4% (n = 340,000); Potency, µM (series often up to 76.9 µM), without a hit: at the highest dose activity change, negative = inhibition, usual class: inhibitors; active = falling curve of any shape with a large fitted effect; inconclusive = falling curve, mostly with a smaller effect; inactive = flat or rising curve; cell line not stated here;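 also: intracellular cAMP measured with PDE inhibitor Ro 20-1724 present during compound exposure; potency is read from the fitted curve at half-maximal effect; % is scaled to controls: 0 for no effect and ±100 for the full control effect; nearly all actives have a fitted effect of over 65% in size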
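Measurement of cellular cAMP by homogeneous time-resolved fluorescence following a 30 min compound exposure at 37C. The PDE inhibitor […] was present throughout; the assay buffer was DPBS with 0.05% BSA and 0.005% Tween 20.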
TRPML1 inh – human mucolipin-1 channel inhibition; Q9GZU1; TRPML1-inducible cells, Ca2+ dye fluorescence, FDSS; active compounds read low; inhibition of EC80 agonist-evoked calcium signal; activity change, negative = inhibition, % (concentration not given with the values); actives 0.02% (n = 390,000); in the data active means activity change below about -50%; inconclusive means about -30% to -50%; inactive means above about -30%;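 also: stimulus is agonist 54-4 at its EC80 concentration; % is scaled to controls: 0 for no effect and ±100 for the full control effect; the text of the record puts the active cut at -80%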
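Tet-induced TRPML1-DL cells loaded with Ca8 no-wash calcium dye were read kinetically on FDSS. Compound addition was followed by EC80 agonist 54-4 (4 uM final); inhibition was read over 110 s.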
Menin MLL FP FL – inhibitors of human menin-MLL interaction, wild-type MLL peptide | FP activity change, % at 61.4 µM | Fluorescence polarization, fluorescein-MLL peptide displacement from menin | 290,000 tested, under 10 active | AID 1766; inconclusive = falling polarisation curve, or a change in total fluorescence; inactive = total fluorescence flat and polarisation flat or rising; no compound was filed as active; the % refers to the polarisation; negative = inhibition;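 also: % of control where 0% means no effect; inhibitors lower the polarisation; unlabelled MLL peptide was the positive control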
ClpP mod – qHTS Assay for Activators of ClpP | ATP-dependent Clp protease proteolytic subunit (Bacillus subtilis (strain 168)), P80244 | purified B. subtilis ClpP, FRET peptide cleavage, 20 min | Potency, µM (doses to about 57.5 µM), for inactives: at the top dose activity change, negative = active | actives 1.9% (n = 340,000) | AID 651965, 2013; active = well fitted falling curve with a large enough effect; inconclusive = small, poorly fitted or top-dose-only effect; inactive = no such curve, though single readings can be large or run the other way; also: potency is read from the fitted curve at half-maximal effect; the source files actives as falling curves though it sought activators and does not explain the sign; nearly all actives have a fitted effect of over 65% in size; many hits overshoot -100%
Target sequence (P80244 whole entry, looked up): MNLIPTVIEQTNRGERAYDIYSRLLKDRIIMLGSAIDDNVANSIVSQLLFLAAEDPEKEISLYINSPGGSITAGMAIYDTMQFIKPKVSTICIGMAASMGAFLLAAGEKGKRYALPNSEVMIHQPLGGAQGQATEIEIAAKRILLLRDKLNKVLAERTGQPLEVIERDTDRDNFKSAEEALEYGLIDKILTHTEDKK
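Purified B. subtilis ClpP, 10 microg/mL final in Tris/HCl pH8 with KCl, BSA, glycerol and Tween-20, cleaved an Abz/nitrotyrosine-quenched decapeptide. Fluorescence (ex 320, em 430) was read at 0 and 20 min at room temperature. Delta was normalized to 5.8 microM ADEP and DMSO/no-enzyme controls.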
Sfp PPTase inh – blocks B. subtilis Sfp PPTase activity. Q9F4F7. Biochemical Sfp PPTase activity, qHTS. Potency, µM, for inactives: max response, negative = inhibition, hits mostly inhibitors. actives 3.5% (n = 310,000). AID 1490; active = well fitted inhibition curve with a large enough effect; inconclusive = small, poorly fitted or top-dose-only effect, or another doubt; inactive = no such curve, though single readings can be large or run the other way;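 also: the enzyme is Sfp with the accession as filed and its product quenches rhodamine fluorescence; potency is read from the fitted curve at half-maximal effect; 0% = enzyme reaction without inhibitor and -100% = no enzyme wells; top concentration of the series not given in the record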
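Compounds were incubated with enzyme (final 15 nM) for 15 min at room temperature before substrate addition started the reaction. Fluorescence at 525 nm excitation, 598 nm emission was recorded immediately and after 30 minutes.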
gsp agonist – activates gsp, the McCune-Albright syndrome mutation; actives 0.13% (n = 340,000); gsp mutant cells, cAMP HTRF, 30 min; control for the full effect not named in the record; Potency, µM (titrated, usually from 76.9 µM), without a hit: at the top dose activation (cAMP increase), most hits filed as activators; active = well fitted activation curve with a large enough effect; inconclusive = small, poorly fitted or top-dose-only effect, or another doubt; inactive = no such curve, though single readings can be large or run the other way; cell line not stated here;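 also: phosphodiesterase inhibitor Ro 20-1724 added with compounds to block cAMP breakdown; potency is read from the fitted curve at half-maximal effect; nearly all actives have a fitted effect of over 60% in size; about a fifth of the inactives were tested at one dose only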
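Cells in DMEM/10% FBS with G418 were pretreated with compounds in DMSO plus […] (300 uM stock) for 30 min at 37C. cAMP was measured by HTRF (cAMP-d2 plus anti-cAMP antibody-K) after 30 min at room temperature.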
TRPV1 PAM – enhances activation of the human vanilloid receptor TRPV1 | Q8NER1 | TRPV1-expressing cells, Fluo-8 calcium influx, capsaicin EC20 potentiation; host cell line not named in the record; control for the full effect not named in the record | potentiation, % at 8.33 µM | actives 0.02% (n = 320,000); active means potentiation above 80%; inconclusive means 30% to 80%; inactive means below 30%; also: 0% is about no effect
Target sequence (Q8NER1 whole entry, looked up): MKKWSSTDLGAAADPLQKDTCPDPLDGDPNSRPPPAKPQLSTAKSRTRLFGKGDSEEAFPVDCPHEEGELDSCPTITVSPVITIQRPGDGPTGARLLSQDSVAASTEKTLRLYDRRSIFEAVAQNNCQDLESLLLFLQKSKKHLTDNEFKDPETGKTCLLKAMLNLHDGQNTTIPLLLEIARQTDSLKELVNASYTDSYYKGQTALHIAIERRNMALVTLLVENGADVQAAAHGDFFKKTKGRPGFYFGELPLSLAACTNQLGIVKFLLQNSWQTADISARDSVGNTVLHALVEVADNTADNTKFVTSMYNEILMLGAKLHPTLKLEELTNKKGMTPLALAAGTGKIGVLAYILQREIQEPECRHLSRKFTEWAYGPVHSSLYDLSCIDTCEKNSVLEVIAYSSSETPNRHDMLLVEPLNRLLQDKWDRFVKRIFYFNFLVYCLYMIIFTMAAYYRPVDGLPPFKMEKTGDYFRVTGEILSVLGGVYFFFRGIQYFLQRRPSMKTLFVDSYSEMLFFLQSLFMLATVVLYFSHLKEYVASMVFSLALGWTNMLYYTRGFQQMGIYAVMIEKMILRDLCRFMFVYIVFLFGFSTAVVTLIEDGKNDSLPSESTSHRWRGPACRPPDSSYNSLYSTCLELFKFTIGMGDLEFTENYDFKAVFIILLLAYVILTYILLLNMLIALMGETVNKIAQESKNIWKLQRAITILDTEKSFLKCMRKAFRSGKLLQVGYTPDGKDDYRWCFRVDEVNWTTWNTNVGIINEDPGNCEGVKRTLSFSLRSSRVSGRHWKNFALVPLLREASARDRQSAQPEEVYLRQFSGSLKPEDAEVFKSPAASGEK
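Cells expressing TRPV1 were dye-loaded with Fluo-8 and read kinetically: 10 s baseline, 3 min after compound (agonist portion), then 2 min after EC20 capsaicin (allosteric enhancer portion). Calcium-bound dye fluorescence at 480/520 nm.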
* = called active by the depositor; ? = inconclusive; . = no result given; & = joins results of further samples; [ ] = another dose, or the depositor's remark.

SMILES	gsp antagonist	TRPML1 inh	Menin MLL FP FL	ClpP mod	Sfp PPTase inh	gsp agonist	TRPV1 PAM
O=C(CSc1ncn[nH]1)NCCc1ccccc1	5.6%	-15.8	2.2	-0.4%	6.7%	-47.8%[inhibitor]	1.6
CCc1nc(N2CCN(C(=O)c3ccco3)CC2)c(C#N)c2c1COC(C)(C)C2	-8.5%	14.9	-3.0	3.4%	13.9%	-39.5%[inhibitor]	-14.8
O=C(CSc1nc2nc(-c3cccs3)cc(C(F)(F)F)c2c(=O)[nH]1)Nc1ccc(F)c(F)c1	-24.2%	19.6	-1.9	.	-24.8%	8.0%[15.4 µM]	-0.5
NC(=O)c1cc(Sc2ccccc2)nc2ccccc12	12.0%	18.1	.	.	.	6.2%	.
Oc1cccc(Nc2nc(N3CCOCC3)nc(N3CCOCC3)n2)c1	-1.1%	9.9	-3.1	-0.7%	5.5%	-1.9%[15.4 µM]	1.0
O=C(CCS(=O)(=O)c1ccc(Br)s1)Nc1ccccc1Br	-4.8%	22.4	-4.9	.	17.4%	7.7%[15.4 µM]	-16.8
COc1ccc(CNC(=O)Nc2ccc(C)c(C)c2)cc1	-7.2%	-14.3	0.5	1.5%	-16.2%	1.6%	-3.5
COc1ccc(CN(C)CCCn2cnc3c(OCc4ccccc4)ncnc32)cc1	12.9%	1.3	.	2.3%	.	.	.
COc1ccc(Cl)cc1N1C(=N)SCC1=O	.	2.8	2.9	.	15.6%	-0.5%[15.4 µM]	-4.6
COc1ccc(N2CCN(C(=O)COC(=O)c3ccccc3OCc3ccc(F)cc3)CC2)cc1	-14.1%	2.4	.	.	.	32.3%[15.4 µM]	-3.6
Cc1ccc(-c2nnc(OCc3cccnc3)c3ccccc23)cc1	-18.6%	-0.7	-0.6	.	-9.1%	-4.7%[15.4 µM]	-1.7
CC(C)(C)NC(=O)CSc1nnc(SCC(=O)NC(C)(C)C)s1	8.2%	-4.2	-3.1	.	7.4%	-0.3%	8.6
Cc1ccc(N2CC(NC(=O)C(=O)c3c[nH]c4ccccc34)CC2=O)cc1C (stereo not given)	11.5%	15.5	.	0.5%	.	-0.6%[15.4 µM]	6.8
CCC(C)c1ccc(NC(=O)COC(=O)C2=COCCO2)cc1 (stereo not given)	6.8%	13.2	-0.9	-0.1%	6.9%	-11.4%	-1.8
O=C(CN1C(=O)NC2(CCCC2)C1=O)Nc1cc(S(=O)(=O)N2CCOCC2)ccc1OCC(F)(F)F	10.4%	-0.8	1.0	-0.7%	4.2%	?	4.5
CN(CC(=O)Nc1ccc(Cl)c(C(F)(F)F)c1)C(=O)c1ccc2c(c1)OCCO2	-20.8%	-21.8	.	-1.3%	.	21.1%[15.4 µM]	9.2
O=[N+]([O-])c1ccccc1CSc1nc2ccccc2o1	-3.4%	-13.9	-0.5	-9.9%	-6.1%	-3.6%	-6.9
Cc1ccc(C(=O)N/C(=C\c2ccco2)C(=O)NCCCn2ccnc2)cc1	12.8%	-14.4	-2.3	0.1%	1.8%	-13.6%[15.4 µM]	1.7
O=C(COc1nncc2ccccc12)Nc1c(F)c(F)c(F)c(F)c1F	11.6%	10.7	-5.3	.	21.1%	14.2%[15.4 µM]	-7.4
COc1ccc(NC(=O)C2=CC=CN3CCS(=O)(=O)N=C23)c(OC)c1	4.8%	13.6	.	-16.7%	.	3.8%	.
CCn1cc(C(=O)N2CC=C(c3ccccc3)CC2)c(=O)c2ccc(C)nc21	3.6%	20.6	-1.8	-5.8%	10.3%	5.2%	4.6
CN1CCCN(C(=O)c2c(F)cccc2Cl)CC1	3.1%	12.9	-1.9	-1.4%	10.4%	6.0%	-6.9
O=C1CCCC(=O)C1Sc1ccc(Cl)cc1	2.0%	-5.3	-1.2	.	10.0%	-30.3%[inhibitor]	-3.6
Cc1ccccc1N1CCN(CCCCN2C(=O)C3CCCN3C2=O)CC1 (stereo not given)	8.9%	29.2	-10.0	-2.0%	-13.6%	-22.1%	-16.1
COc1ccccc1/C(C)=N/NC(=O)c1nnn(-c2nonc2N)c1C(C)C	-4.9%	30.2	-3.8	-7.4%	6.7%	10.3%	-22.5
CC1(c2ccccc2)NC(=O)N(NC(=O)COC(=O)c2cc(Br)ccc2O)C1=O (stereo not given)	6.5%	27.7	.	17.4%	.	7.8%[15.4 µM]	1.1
Cc1ccc(NC(=O)CSc2nc3ccccc3c(=O)n2CCCC(=O)NCC2CCCO2)cc1 (stereo not given)	-9.3%	0.2	.	0.3%	8.3%	21.1%	19.3
COc1cccc(-c2nn(C)c3sc(C(=O)N4CCOCC4)cc23)c1	-4.0%	-2.7	1.5	-18.2%	2.8%	-14.4%	.
c1ccc(-c2cc(CSc3nc4ccccc4[nH]3)on2)cc1	-17.0%	-9.5	-1.1	0.8%	3.4%	-34.2%[inhibitor]	0.8
COc1cc(/C=N/NC(=O)c2ccc(CN(C)S(=O)(=O)c3ccc(C)cc3)cc2)ccc1O	.	7.4	2.0	.	13.1%	-4.0%[15.4 µM]	-11.5
O=C(Nc1ccccc1-c1ccccc1)C(c1ccccc1)c1ccccc1	-22.2%	-0.9	0.5	-1.7%	14.9%	-20.2%	-1.8
Cc1ccc(S(=O)(=O)N(CCCO)Cc2cc3c(C)ccc(C)c3[nH]c2=O)cc1	-3.2%	-1.1	-0.4	?	1.2%	2.1%	-4.5
Cc1nnc(SCC(=O)Nc2cc(C(C)(C)C)nn2-c2ccccc2)s1	1.4%	-6.5	0.4	-0.7%	6.4%	-36.5%[inhibitor]	8.8
Cn1c(=O)c2c(nc(-c3ccccc3)n2C)n(Cc2ccccc2)c1=O	2.6%	-3.6	-0.1	-28.7%	-2.6%	-24.5%	-17.7
CC(C)(C)c1ccc(-c2noc(CCC(=O)Nc3cccnc3)n2)cc1	-6.5%	6.2	-3.0	-1.7%	12.8%	4.2%	-3.0
COc1ccc(NC(=O)CCNC(=O)Cn2ccc3ccccc3c2=O)c(OC)c1	1.2%	-11.7	0.6	-3.0%	7.9%	-25.9%	.
CCn1c(CSc2nc(C)cc(C)n2)nnc1SCC(=O)N1CCCc2ccccc21	4.4%	17.4	5.7	-1.9%	-17.1%	-44.4%[inhibitor]	-4.0
COc1ccc(S(=O)(=O)NCC(c2cccs2)N2CCc3ccccc3C2)cc1 (stereo not given)	-8.9%	-11.5	.	-1.8%	.	-50.0%[inhibitor]	6.8
CCn1c(SCC(=O)c2ccc(OC)cc2)nnc1C1CC1	6.5%	19.1	3.1	-2.0%	-14.5%	11.0%	?
Nc1nnnn1CC(=O)N/N=C/C=C/c1ccccc1	10.2%	-19.6	3.9	.	6.3%	-4.8%[15.4 µM]	-22.3

Next part, overlapping the part above by two compounds.
SMILES	gsp antagonist	TRPML1 inh	Menin MLL FP FL	ClpP mod	Sfp PPTase inh	gsp agonist	TRPV1 PAM
CCn1c(SCC(=O)c2ccc(OC)cc2)nnc1C1CC1	6.5%	19.1	3.1	-2.0%	-14.5%	11.0%	?
Nc1nnnn1CC(=O)N/N=C/C=C/c1ccccc1	10.2%	-19.6	3.9	.	6.3%	-4.8%[15.4 µM]	-22.3
Cc1cc2ccccc2n1CCC(=O)O	2.8%	5.6	-8.2	.	13.1%	-8.6%[15.4 µM]	-0.4
CCCNC(=O)c1onc(CSc2ccc(Cl)cc2)c1C(=O)NC(C)C	-0.8%	37.3	.	-1.7%	.	-1.8%	14.2
COc1ccccc1N1CCN(C(=O)c2sc3nc4n(c(=O)c3c2C)CCC4)CC1	5.9%	-9.7&15.8	.	-1.9%&0.8%	1.2%	?	0.8
CC(=O)N1CCN(CC(=O)Nc2ccc3c(c2)CCC3)CC1	4.7%	-24.5	3.0	?	6.0%	-41.5%[inhibitor]	6.4
Cc1cc(NC(=O)COC(=O)c2oc3c(ccc4ccccc43)c2C)no1	26.4%	18.4	.	?	-9.1%	-3.4%	-11.2
CCN(CC)S(=O)(=O)c1ccc2c(c1)nc(CCC(=O)O)n2C	-5.0%	.	0.7	-1.7%	20µM*	18.6%	-16.7
CN(CCOc1ccc(Cl)cc1)C(=O)C1CCN(C(=O)c2ccc(Cl)cc2)CC1	-11.7%	1.1	.	-2.4%	6.2%	?	-1.5
NC(=O)CSc1nnc(SCc2ccc(F)cc2)s1	1.2%	1.8	6.4	.	7.3%	4.9%[15.4 µM]	2.1
CCOC(=O)c1sc(C)c2c(=O)n(CCCN3CCOCC3)cnc12	3.6%	-4.2	-1.2	-5.1%	2.0%	?	4.2
COc1ccc(S(=O)(=O)N(C)C[C@H]2Oc3ccc(NS(=O)(=O)c4cccs4)cc3CC(=O)N([C@H](C)CO)C[C@H]2C)cc1	-8.7%	-6.6	.	2.7%	.	.	.
CCN(CC(=O)NCc1ccc(Cl)cc1)C(=O)CN1C(=O)NC(C)(c2ccccc2)C1=O (stereo not given)	-7.0%	27.2	.	-0.6%	14.0%	8.4%[15.4 µM]	5.1
O=S(=O)(NCC1CCCO1)c1ccc(S(=O)(=O)N(Cc2ccccc2F)C2CCCCC2)cc1 (stereo not given)	-2.7%	5.6	.	-2.2%	.	1.5%	.
CCCC(O)(c1ccc(Cl)cc1)C(CN1CCOCC1)c1ccccc1 (stereo not given)	-7.3%	20.7	2.0	1.4%	3.9%	-70.1%[inhibitor]	.
C=CCOc1ccccc1/C=N/NC(=O)c1ccc(Cl)cc1Cl	-14.1%	0.4	8.2	-1.0%	-5.3%	-25.7%	4.1
CC(=O)NNC(=O)c1cc2sccc2s1	4.0%	14.7	-1.2	-0.1%	5.2%	10.4%[15.4 µM]	5.9
CCOc1ccc(Br)cc1S(=O)(=O)N1CCSC1	7.8%	-2.8	-1.4	?	15.5%	-4.3%[15.4 µM]	-0.4

Individual results from the list.
Value of `CCOc1ccc(Br)cc1S(=O)(=O)N1CCSC1` in gsp agonist: -4.3%[15.4 µM]
Value of `CCN(CC(=O)NCc1ccc(Cl)cc1)C(=O)CN1C(=O)NC(C)(c2ccccc2)C1=O` (stereo not given) in TRPV1 PAM: 5.1
Value of `CCCC(O)(c1ccc(Cl)cc1)C(CN1CCOCC1)c1ccccc1` (stereo not given) in Sfp PPTase inh: 3.9%
